Compound activity from PubChem.
CBX7 inh: CBX7 chromodomain binding inhibitors, primary screen, biochemical, AlphaScreen. Chromobox protein homolog 7 (Homo sapiens), O95931. AlphaScreen His6-CBX7 / biotin-H3K27me3 peptide binding; stronger effect = lower value. normalised signal (fraction of DMSO) (concentration not given with the values). 1.1% of 66,000 active. AID 1224903, 2016; in the data active means normalised signal below about 0.5;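 further: 100 nL library stock added to about 20 µL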
Target sequence (O95931 whole entry, looked up): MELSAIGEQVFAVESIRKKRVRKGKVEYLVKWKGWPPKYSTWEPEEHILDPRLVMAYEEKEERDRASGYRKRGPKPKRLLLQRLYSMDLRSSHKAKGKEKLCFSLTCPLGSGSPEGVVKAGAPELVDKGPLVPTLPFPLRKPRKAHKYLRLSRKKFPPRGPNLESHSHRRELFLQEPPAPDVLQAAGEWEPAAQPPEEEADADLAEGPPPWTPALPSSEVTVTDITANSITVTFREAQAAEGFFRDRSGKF
CBX7 inh z-score: second read-out of CBX7 inh, no call of its own (marks repeat the call); z-score; measured here: z-score of CBX7 signal; some inactives read as strong as hits; reference of the scale not given here;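 same signal on another scale; lower means less binding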
* marks the source's active call; other numbers are inactive results.

item	molecule	CBX7 inh	CBX7 inh z-score
1	CCCc1noc(-c2ccc(-c3ccccc3)cc2)n1	2	4.1
2	Cc1ccc(Nc2c(-c3cccnc3)nc3cc(C)ccn23)cc1	0.91	-2.3
3	Clc1cccc(Nc2c3c(nc4ccc(Cl)cc24)CCCC3)c1	0.92	-0.11
4	COc1ccc(Nc2ncc(C(=O)N3CCC(Cc4ccccc4)CC3)c3ccccc23)cc1	0.96	-1.4
5	O=C(CC1(O)C(=O)Nc2ccc(Br)cc21)c1ccc(Br)cc1 (centres undefined)	0.95	-1.5
6	O=C(NCc1ccco1)c1ccc2c(c1)N(Cc1cccc(Cl)c1)C(=O)CS2	1	0.014
7	CCOc1ccc(NC(=O)C2CCN(S(=O)(=O)c3c(C)noc3/C=C/c3cccs3)CC2)cc1	0.98	-0.84
8	Cc1ccn2c(NC(=O)COc3ccc(Cl)cc3)c(-c3ccccc3)nc2c1	0.91	-0.9
9	CC1CCCCN1S(=O)(=O)c1ccc(C(=O)Nc2ccccc2-c2nc3ccccc3o2)cc1 (centres undefined)	1	0.78
10	CCOC(=O)N1CCC(Nc2c(NCC3CCN(Cc4cccc(C)c4)CC3)c(=O)c2=O)CC1	1	-0.12
11	CCCCNC(=O)c1ccc(Cl)c(NC2=NC3CS(=O)(=O)CC3S2)c1 (centres undefined)	1.1	1.1
12	Cc1ccccc1Cn1c(SCc2ccccc2F)nc2ccncc21	0.98	-0.83
13	CCCNC(=O)c1cc(=O)n(Cc2ccc(C)cc2)c2ccccc12	1	0.38
14	O=C(Nc1c2c(nn1-c1ccc(Cl)cc1)CSC2)c1cccc(Cl)c1	1	0.51
15	CCCN(CCC)C(=O)c1c[nH]c2ccc(S(=O)(=O)Nc3ccc(OCC)cc3)cc2c1=O	1.1	0.32
16	CCCCN(CC)C(=O)Cn1cnc2scc(-c3ccccc3)c2c1=O	1	-0.052
17	O=C(NCCc1ccccc1)C1CCN(C(=O)c2cc3sccc3n2Cc2ccc(F)cc2)CC1	0.97	-1.2
18	CCOCCCNC(=O)c1cc(Nc2ccc(C)c(C)c2)nc2ccccc12	1.1	1.2
19	COc1ccc(-c2noc(CCC(=O)N(C)c3cccc(C)c3)n2)cc1	1.1	2.4
20	Cc1ccccc1Nc1c(-c2cc(Br)ccc2F)nc2c(C)cccn12	0.98	-0.21
21	COc1ccc(-c2nc3cc(C)ccn3c2NC(=O)c2cccc(F)c2)cc1	0.95	-1.3
22	Cc1cc(-c2ccccc2)nc(Nc2nc(C)c3ccccc3n2)n1	0.96	-0.95
23	CCc1ccccc1NC(=O)CSc1nnc(COc2ccccc2Cl)o1	0.96	-0.47
24	C=CCSc1nnc(Cc2cc(=O)[nH]c(=O)[nH]2)n1-c1ccc(OCC)cc1	0.99	-0.19
25	COc1ccc(-c2noc(CCC(=O)NCc3ccccn3)n2)cc1	0.9	-0.1
26	c1ccc2c(OCc3nc(-c4ccncc4)no3)cccc2c1	1	0.24
27	Cc1nn(-c2ccccc2)c(C)c1NS(=O)(=O)c1ccccc1	1.1	2.4
28	CCCN(c1ccc(C(C)C)cc1)S(=O)(=O)c1ccc2c(c1)CCN2C(=O)CC	1	0.28
29	COc1ccc(OC)c(NC(=O)COc2cc(C)ccc2C(C)(C)C)c1	0.89	-0.26
30	CC(=O)CC(O)c1ccc2ccccc2n1 (centres undefined)	0.94	-0.99
31	CCCN1CCN(CCCNC(=O)C2CCCN(c3nn4c(=O)cc(C)nc4s3)C2)CC1 (centres undefined)	1.3	2.1
32	COc1cccc(NC(=O)CSc2nccn2-c2ccc(Cl)cc2)c1	0.53	-1.7
33	CCOc1ccc(N2CC(C(=O)Nc3c(C)cc(C)cc3C)CC2=O)cc1 (centres undefined)	0.95	-0.071
34	CCC(C)NC(=O)CCc1c(C)nc2cc(-c3ccccc3OC)nn2c1C (centres undefined)	0.89	-1.8
35	Cc1ccc(-c2nnc(Nc3ccc(C(=O)N(C)C)cc3)c3ccccc23)cc1S(N)(=O)=O	1.1	2.4
36	Cc1cccc(C)c1NC(=O)C1(N2CCc3ccccc32)CCCCC1	1.1	1.3
37	COc1ccc(-c2cn(-c3ccccc3)c(=O)[nH]2)cc1	0.98	-0.42
38	Cc1ccc(Nc2c(-c3ccc(C)cc3)nc3cccc(C)n23)cc1	0.74	-2.1
39	CCOc1ccccc1NC(=O)c1c(NCc2cc(OC)ccc2OC)sc2c1CCC2	0.98	-1
40	Cc1ccc(NC(=O)C2CCCN(S(=O)(=O)c3cccs3)C2)cc1F (centres undefined)	1.2	2.9
41	COc1ccc(NC(=O)c2cnc3scc(C)n3c2=O)cc1OC	1.1	1.7
42	Clc1cc2c(cc1CSc1nc3ncc(Br)cc3[nH]1)OCO2	1	0.41
43	CCOC(=O)c1cccc(NC(=O)C2CCCN2S(=O)(=O)c2cccc3cccnc23)c1 (centres undefined)	0.94	-2.1
44	Cc1cc(C)c(NC(=O)CSc2nnnn2-c2ccc(Cl)cc2)c(C)c1	0.99	-0.013
45	O=C1CCCc2c1sc1nc3n(c(=O)c21)CCCCC3	0.89	-1.3
46	CCOC(=O)c1ccccc1NC(=O)Cc1c(C(=O)O)[nH]c2ccccc12	0.97	-0.71
47	COCCCNC(=O)CSc1nc(-c2cccc(OC)c2)[nH]c1-c1ccc(OC)cc1	0.98	-0.41
48	Cc1ccc2c(c1)c(=O)c(S(=O)(=O)c1ccccc1)cn2CC(=O)Nc1ccc2c(c1)OCO2	0.93	-0.92
49	Cc1cc(-c2ccccc2)n(-c2cc(N3CCN(C)CC3)ncn2)n1	0.96	-0.45
50	COc1ccc(CN(CCC(c2ccc3c(c2)OCO3)c2ccccc2OC)C(C)=O)cc1 (centres undefined)	0.89	-0.4

Reprinted at random: 3 compounds from above
item	molecule	CBX7 inh	CBX7 inh z-score
34	CCC(C)NC(=O)CCc1c(C)nc2cc(-c3ccccc3OC)nn2c1C (centres undefined)	0.89	-1.8
26	c1ccc2c(OCc3nc(-c4ccncc4)no3)cccc2c1	1	0.24
40	Cc1ccc(NC(=O)C2CCCN(S(=O)(=O)c3cccs3)C2)cc1F (centres undefined)	1.2	2.9

Going on with the list:
item	molecule	CBX7 inh	CBX7 inh z-score
51	CCc1ccccc1NC(=O)c1cc(-c2cccc(OC)c2)nc2ccccc12	1.1	0.3
52	COc1ccccc1CNC(=O)c1ccc(Cl)c(NC2=NC3CS(=O)(=O)CC3S2)c1 (centres undefined)	1.1	1.1
53	CCCN1Cc2cccc(C(=O)Nc3ccc(OC)c(Cl)c3)c2C1=O	1	0.0083
54	CCC(=O)N1CCc2cc(S(=O)(=O)N3CCN(c4ccc(Cl)cc4)CC3)ccc21	0.98	-0.079
55	COc1ccc(N2CCN(CCCNC(=O)c3ccc4nc(N5CCOCC5)sc4c3)CC2)cc1	1.2	1.9
56	O=C(C1CCC(Cn2c(=O)[nH]c3ccccc3c2=O)CC1)N1CCN(c2ccccn2)CC1 (centres undefined)	0.98	-0.31
57	CCOC(CNC(=O)CN1C(=O)COc2ccc(S(=O)(=O)N3CCCCCC3)cc21)OCC	0.92	-2.5
58	CCOc1ccc2nc(NC(=O)C3CCCN(S(=O)(=O)c4cccnc4)C3)sc2c1 (centres undefined)	0.95	-0.054
59	O=C(Nc1nnc(/C=C/c2ccccc2)s1)c1cccs1	1.1	1.4
60	CCOc1ccccc1N(C)C(=O)Cc1c(C(=O)O)[nH]c2ccccc12	1.1	1.7
61	CCOC(=O)C1CCN(C(=O)Nc2ccc(Cl)cc2)CC1	1	0.31
62	COc1cc2c(cc1OC)C(C(=O)N1CC(C)CC(C)C1)C1c3ccccc3CCN1C2=O (centres undefined)	0.97	-0.87
63	Clc1ccc(Cn2c(-c3cccs3)nc3ccccc32)c(Cl)c1	0.98	-0.61
64	COc1ccccc1NC(=O)c1c(C)nn(-c2ccccc2)c1Cl	1.1	1.5
65	Cc1cc(C)cc(NS(=O)(=O)c2ccc3[nH]cc(C(=O)NCCC4=CCCCC4)c(=O)c3c2)c1	1.1	0.51
66	CCCC1=Nc2cc(C(=O)N3CCC(C(N)=O)CC3)ccc2Sc2ccccc21	0.98	-1.2
67	Cc1ccc(N2C(=O)c3ccccc3C2Nc2ccc(Br)cc2F)nc1 (centres undefined)	1	0.28
68	Cc1cccc(C)c1NC(=O)C1NC(=O)CC1c1ccccc1 (centres undefined)	0.95	-0.54
69	COc1ccc(-c2nc(C(=O)NCCCN3CCOCC3)c(C)o2)cc1	0.96	-1.2
70	COc1ccc(-c2cc(C(F)(F)F)n3nc(C(=O)NCc4cccnc4)c(Cl)c3n2)cc1	1.1	0.74
71	O=C(c1ccc2nc(N3CCOCC3)sc2c1)N1CCN(c2ccc(F)cc2)CC1	1	0.0029
72	COC(=O)c1ccc(-n2c(/C=C\c3ccc(F)c(F)c3)nc3ccccc3c2=O)cc1	1.1	0.059
73	Cc1ccc(-n2nc3c(c2NC(=O)c2ccc(OC(C)C)cc2)CSC3)cc1	0.99	-0.2
74	Cc1ccc2c(c1)NC(=O)C(CC(=O)NCCCc1ccccc1)O2 (centres undefined)	1	0.9
75	COc1ccc(CSc2cccc3cccnc23)cc1[N+](=O)[O-]	0.85	-3.3
76	O=C(CSc1nnc(-c2ccc3c(c2)OCCO3)o1)Nc1nc(-c2ccccc2)cs1	1	2.1
77	Cc1noc(C)c1S(=O)(=O)N1CCCC(C(=O)Nc2ccc(Cl)cn2)C1 (centres undefined)	0.93	-1.2
78	COc1ccc(-c2nnc(SCC(=O)Nc3ccc(Br)cc3)o2)cc1	1.2	5.8
79	COc1ccc(-c2nnc(SCC(=O)N3CC(C)CC(C)C3)o2)cc1 (centres undefined)	1.4	0.89
80	CCOC(=O)c1cccc(NC(=O)C2CCN(S(=O)(=O)c3cccc4cccnc34)CC2)c1	0.91	-1.1
81	COc1ccc(OC)c(CNC(=O)C(C)N2C(=O)COc3ccc(Cl)cc32)c1 (centres undefined)	0.82	-0.18
82	COC(=O)c1ccc(N2C(=O)CC(NCc3ccc(OC)c(OC)c3)C2=O)cc1 (centres undefined)	1.2	1.9
83	COc1ccc(-c2cc3nc(C)c(CCC(=O)Nc4ccc(C)cc4Cl)c(C)n3n2)c(OC)c1	0.99	-0.17
84	Cc1cc2ccccc2c(=O)n1CC(=O)NCCCN1CCOCC1	0.96	-1.2
85	O=C(Nc1ccccc1F)C1CCN(S(=O)(=O)c2cccnc2)CC1	1.1	2.6
86	Cc1ccc2cc(CCNC(=O)CCC3CCCC3)c(=O)[nH]c2c1C	1.1	0.49
87	O=C(Nc1nc(C23CC4CC(CC(C4)C2)C3)cs1)c1ccccc1	1.3	2.9
88	Cc1ccc2c(c1)N(CCCC(=O)NCC1COc3ccccc3O1)C(=O)CO2 (centres undefined)	0.99	-0.14
89	Cc1cc(C)c2ccc(/C=C/c3ccccc3N)nc2c1O	0.83	-2.6
90	Cc1ccc(Nc2c(-c3ccc(N(C)C)cc3)nc3ccc(Cl)cn23)cc1	0.93	-0.67
91	Cc1ccc2c(c1)-c1c(cnn1CC(=O)NC1CCCc3ccccc31)CO2 (centres undefined)	1.1	1.3
92	CC12C=CC3(CN(Cc4ccccc4)C(=O)C3C1C(=O)NCCc1ccccc1Cl)O2 (centres undefined)	1.1	0.45
93	O=C(Nc1c[nH]c(=O)[nH]c1=O)c1ccc(-c2ccccc2)cc1	1.1	2.2
94	COc1ccc(-c2nc(CSCC(=O)NC(C)C)c(C)o2)cc1	0.99	-0.25
95	Cc1c(-c2ccc(Cl)cc2Cl)nc2ccccc2c1C(=O)NC(C)c1ccccc1 (centres undefined)	1	0.075
96	CC1CCC(NC(=O)c2cc(-c3ccncc3)nc3ccccc23)CC1 (centres undefined)	0.91	-1
97	O=C(Cn1c(SCc2ccccc2F)nc2ccncc21)N1CCCC1	1	2.3
98	CC1CCC(NC(=O)c2cc3sccc3n2Cc2ccc(Cl)cc2)CC1 (centres undefined)	1	0.38
99	Cc1ccc(-c2noc(CNc3ccc(Oc4ccccc4)cc3)n2)cc1	0.84	-0.21
100	O=C(Nc1cc(C(F)(F)F)ccc1Cl)c1cnc2sccn2c1=O	1.1	0.86

(listing goes on)
item	molecule	CBX7 inh	CBX7 inh z-score
101	Cc1cccc(CCNC(=O)C2CCN(S(=O)(=O)c3cccc4nonc34)CC2)c1	1	2.2
102	Cc1c(C(=O)NC2CCCc3ccccc32)oc2ccc(S(=O)(=O)N3CC(C)CC(C)C3)cc12 (centres undefined)	0.88	-1.2
103	COc1ccc(-c2cc(C(=O)N3CCc4ccccc4C3)no2)cc1OC	1.1	2
104	Cc1onc(-c2c(Cl)cccc2Cl)c1C(=O)NC1CCCCCCC1	0.96	-0.66
105	CCCCC1(O)C(C)C(c2ccccc2)NC(c2ccccc2)C1CCC (centres undefined)	1	0.26
106	O=C(Nc1nnc(-c2cccnc2)s1)c1ccccc1Br	1.1	1.1
107	CC(C)(CN=C1NS(=O)(=O)c2ccccc21)CNC(=O)c1ccccc1Cl	1.1	1.1
108	CCN1CCN(c2cc(C)c3cc(NC(=O)c4cc(Cl)ccc4OC)ccc3n2)CC1	1	0.62
109	O=C(Nc1ccc(OCc2ccccc2)cc1)c1cc(Cl)ccc1Nc1ccccc1	0.84	-0.56

Records 104 through 109, reprinted for reference:
item	molecule	CBX7 inh	CBX7 inh z-score
104	Cc1onc(-c2c(Cl)cccc2Cl)c1C(=O)NC1CCCCCCC1	0.96	-0.66
105	CCCCC1(O)C(C)C(c2ccccc2)NC(c2ccccc2)C1CCC (centres undefined)	1	0.26
106	O=C(Nc1nnc(-c2cccnc2)s1)c1ccccc1Br	1.1	1.1
107	CC(C)(CN=C1NS(=O)(=O)c2ccccc21)CNC(=O)c1ccccc1Cl	1.1	1.1
108	CCN1CCN(c2cc(C)c3cc(NC(=O)c4cc(Cl)ccc4OC)ccc3n2)CC1	1	0.62
109	O=C(Nc1ccc(OCc2ccccc2)cc1)c1cc(Cl)ccc1Nc1ccccc1	0.84	-0.56

These rows are one share of the data; the hit share may differ from the screen's.
